Beta2AR agonist – beta2AR agonists driving receptor internalization, primary screen, cell-based, FAP fluorogen, flow cytometry; Beta-2 adrenergic receptor (Homo sapiens), P07550; Am2.2-beta2AR cells; reference of the scale not given here; response, % (test concentration not listed); actives 0.43% (n = 340,000); AID 504454, 2011;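 active = response above a set limit, near 3 SD of response in nonfluorescent compounds, cut at about 42% in these data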;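 also: stock transfer was 100 nL into about 11 µL; a reference agonist was the positive control; negative values mostly stem from fluorescent compounds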
FGF22 binding – binders of human FGF22 protein, primary screen, FGF22 synaptogenesis inhibitor project, biophysical, thermal shift, single point; Fibroblast growth factor 22 (Homo sapiens), Q9HCT0; recombinant FGF22 thermal shift, SYPRO orange fluorescence; percent of sucrose octasulfate shift, DMSO zero; calls only at 9.99 µM; actives 1.5% (n = 340,000);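 active = melting point raised past a set limit in the mean and every replicate; inconclusive = no clear call; three in four hits are not shown here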
Target sequence (Q9HCT0 whole entry, looked up): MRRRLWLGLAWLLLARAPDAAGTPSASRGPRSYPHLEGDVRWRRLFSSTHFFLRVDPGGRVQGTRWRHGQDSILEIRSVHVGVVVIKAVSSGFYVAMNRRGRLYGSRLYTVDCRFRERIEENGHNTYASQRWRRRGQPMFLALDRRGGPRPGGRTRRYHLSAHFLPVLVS
UCH37 DUB inh – inhibitors of human UCH37 deubiquitinase, primary screen, biochemical, Ub-AMC cleavage, fluorescence; Ubiquitin carboxyl-terminal hydrolase isozyme L5 (Homo sapiens), Q9Y5K5; purified proteasome/UCH37; actives 0.33% (n = 330,000); inhibition, % (no concentration beside the values); AID 588478, 2011;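 active = mean of two replicates above 20%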;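 also: 0% = compound-free wells with enzyme and 100% = wells lacking proteasome; stock transfer was 100 nL into about 20 µL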
Target sequence (Q9Y5K5 whole entry, looked up): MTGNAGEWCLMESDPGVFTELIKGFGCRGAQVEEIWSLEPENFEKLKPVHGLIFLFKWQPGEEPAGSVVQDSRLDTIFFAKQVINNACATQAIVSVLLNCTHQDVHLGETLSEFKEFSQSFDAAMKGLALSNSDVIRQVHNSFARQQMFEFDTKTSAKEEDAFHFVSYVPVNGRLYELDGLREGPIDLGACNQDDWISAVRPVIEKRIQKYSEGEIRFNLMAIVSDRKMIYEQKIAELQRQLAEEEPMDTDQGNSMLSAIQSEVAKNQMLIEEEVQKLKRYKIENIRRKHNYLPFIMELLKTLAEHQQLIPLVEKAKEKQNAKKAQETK
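Schedule: 30 min plus 25 min, room temperature / Material: human UCH37 within purified proteasomes / Technique: AMC fluorescence intensity at 355/460 nm / Buffer or medium: pH 7.4 Tris-HCl (50 mM) with ovalbumin, ATP-MgCl2, DTT / Controls: wells without proteasome as full block, compound-free enzyme plus substrate as uninhibited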
HNF4A DNA FP – change in binding of human HNF4A to DNA, primary screen, biochemical, fluorescence polarization, FITC-DNA. Hepatocyte nuclear factor 4-alpha (Homo sapiens), P41235. 1 h. activity change, % at 10 µM. actives 0.3% (n = 360,000). AID 1224865, 2016; in the data active = activity change above about 30%, passing the limit was not always enough;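 also: controls were the assay level and a saturating level of protein; the project sought stronger binding though the title names inhibitors; some compounds called inactive have numbers as strong as hits; positive values seem to mean higher polarization but the record does not say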
Target sequence (P41235 whole entry, looked up): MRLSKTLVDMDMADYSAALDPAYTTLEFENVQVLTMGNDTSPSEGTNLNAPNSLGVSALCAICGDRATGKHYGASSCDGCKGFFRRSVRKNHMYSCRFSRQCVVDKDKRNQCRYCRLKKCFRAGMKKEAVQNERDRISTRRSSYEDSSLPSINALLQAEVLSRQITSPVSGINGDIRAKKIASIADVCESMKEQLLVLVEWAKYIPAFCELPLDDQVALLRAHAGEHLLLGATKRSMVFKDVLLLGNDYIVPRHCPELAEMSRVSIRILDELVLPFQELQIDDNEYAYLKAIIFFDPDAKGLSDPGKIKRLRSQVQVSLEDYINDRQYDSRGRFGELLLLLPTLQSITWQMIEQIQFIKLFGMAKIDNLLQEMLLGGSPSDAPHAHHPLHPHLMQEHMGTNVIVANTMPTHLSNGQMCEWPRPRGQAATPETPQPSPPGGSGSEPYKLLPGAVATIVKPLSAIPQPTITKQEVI
ALR inh – inhibitors of human ALR sulfhydryl oxidase, primary screen, biochemical, H2O2 detection, HRP-luminol luminescence, single point. FAD-linked sulfhydryl oxidase ALR (Homo sapiens), P55789. purified ALR, DTT oxidation. inhibition, % (no concentration beside the values). actives 3.8% (n = 290,000). AID 485317, 2010;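 active = mean and each replicate at 75% or more; inconclusive = only one of the two met; inactive = neither met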;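 also: stock transfer was 7.5 nL into about 7.5 µL; 0% = neutral wells and 100% = wells with inactivated enzyme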
E coli growth – E. coli growth inhibition, primary screen, OD600. Escherichia coli growth, 23 h; active compounds read low. OD600 absorbance (concentration not given with the values). actives 0.21% (n = 330,000). AID 1053175, 2014;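 active = OD600 absorbance below the run mean of sample wells minus 3.6 SD, in any replicate, cut at about 0.56 in these data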;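 also: stock transfer was 300 nL into about 60 µL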
LANA-H2B inh – blockers of LANA interaction with H2A/H2B – biochemical, FP readout, HTS, primary screen; inhibition, % (no concentration beside the values); actives 0.6% (n = 320,000); Protein LANA1 (Human herpesvirus 8 type P (isolate GK18)), Q9QR71; cell-free LANA-H2A/H2B peptide, fluorescence polarization; in the data active = inhibition mostly above about 10%, no sharp cut-off; inactive = mostly below about 6.7%;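 also: stock transfer was 7.5 nL into about 10 µL; 0% = median of vehicle wells and 100% = median of positive control wells; one replicate is shown; the record names a cut of 25% in any replicate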
Active calls of the source: *; i = inactive; ? = inconclusive; . = no result given.

SMILES	Beta2AR agonist	FGF22 binding	UCH37 DUB inh	HNF4A DNA FP	ALR inh	E coli growth	LANA-H2B inh
N#Cc1nc(-c2cccs2)oc1NCC1CCCO1 (stereo unspecified)	-10.5	i	i	-0.2	26.3	0.655	3.2
O=S(=O)(NC1CCCCC1N1CCC(O)CC1)c1ccc(Cl)cc1 (stereo unspecified)	-0.7	i	-1.5	20.1	-0.9	0.633	-2.2
CCOC(=O)C1(Cc2cccc(OC)c2)CCN(Cc2ccc(OC)c(O)c2)CC1	-4.8	i	0.8	0.9	38.5	0.68	6.8
O=C1CSC(=S)N1/N=C/c1cccc(C(F)(F)F)c1	13.1	i	.	1.8	2.0	.	-0.3
O=C(CSc1ccc2c(c1)OCCO2)Nc1cccc(S(=O)(=O)N2CCCCC2)c1	6.2	.	1.5	-1.9	-10.7	0.703	3.9
O=C(O)c1nn(CCOc2c(Cl)cccc2Cl)c(=O)c2ccccc12	-1.5	i	2.5	-1.5	-2.0	0.683	-2.7
Cc1cc(N)n2ncc(-c3ccccc3)c2n1	4.7	.	-16.8	-3.8	90.5*	0.718	-3.3
O=S(=O)(c1cnc(Cl)c(Cl)c1)N1CCc2ccccc21	4.5	i	3.3	-0.8	4.7	0.698	-1.8
C=CCn1c(-c2ccoc2)n[nH]c1=S	3.2	.	0.8	0.6	.	0.689	0.9
O=[N+]([O-])c1cccc(-c2n[nH]c(=S)n2Cc2ccccc2)c1	7.9	.	4.9	2.2	?	0.718	-3.6
NNC(=O)CCN(Cc1ccco1)S(=O)(=O)c1ccc(Cl)cc1	-3.4	i	1.3	-1.3	-10.4	0.608	4.7
Cc1nccn1CCc1n[nH]c(=S)n1Cc1ccccc1	-1.2	.	1.1	-1.8	46.5	0.633	-4.8
Cn1c2ccccc2c2cnn(CC(=O)N3CCCCC3)c(=O)c21	-10.6	i	-6.4	2.2	.	0.689	-0.8
COc1cccc(/C=N/Nc2ccc([N+](=O)[O-])cc2)c1O	16.7	i	.	12.2	.	.	-4.4
Cc1cc(C)c(NC(=O)CCN2CCN(Cc3ccccc3)CC2)c(C)c1	-1.8	i	0.8	1.0	-1.7	0.652	-0.7
Cc1cc(C(=O)OCC(=O)NCc2ccccc2)c2ccccc2n1	0.7	i	-2.8	2.7	-9.8	0.693	1.0
COC(=O)C1=C(C(=O)c2ccc(C)cc2)C(c2ccc(OC)c(OC)c2)n2nnnc2N1 (stereo unspecified)	-1.4	.	6.1	-1.9	0.6	.	2.8
OCCCNC(=S)Nc1ccc2nc(-c3ccccn3)c(-c3ccccn3)nc2c1	6.2	.	-4.4	-0.9	-12.3	0.701	1.2
COc1ccc(NS(=O)(=O)c2ccc(NC(=O)c3ccccc3Br)cc2)nn1	-1.4	i	5.2	-1.9	3.2	0.672	-1.8
Cc1cccc(-c2nc(CS(=O)CC(=O)NC3CCCCC3)c(C)o2)c1 (stereo unspecified)	-6.7	i	0.9	-0.8	99.0*	0.662	3.7
CCc1nnc(NC(=O)C2CC(=O)N(Cc3ccco3)C2)s1 (stereo unspecified)	5.9	.	5.5	1.5	-3.4	0.657	5.1
Cc1cc(C)nc(NC(=O)CSc2ncccn2)n1	.	.	2.1	.	-2.5	0.657	-6.2
C(=N\Nc1nc2ccccc2s1)/c1ccccn1	5.5	i	.	.	9.1	.	-5.9
CC(=O)c1cccc(NC(=O)N2CCC(NC(=O)c3ccco3)CC2)c1	-3.6	i	-3.4	4.8	1.2	0.635	-2.2
CCC(C(=O)NN1C(=O)c2ccccc2C1=O)c1ccccc1 (stereo unspecified)	-0.4	i	.	4.0	.	.	-3.4

Continued.
SMILES	Beta2AR agonist	FGF22 binding	UCH37 DUB inh	HNF4A DNA FP	ALR inh	E coli growth	LANA-H2B inh
COc1ccc(COC(=O)c2ccc(N3CCCC3=O)cc2)cc1F	1.8	.	0.9	3.1	-7.5	0.719	8.7
CN(C)c1ccc(CNc2ccc3c(c2)ncn3C)cc1	.	.	-1.7	.	99.5*	0.698	-2.0
Brc1ccc2nc(-c3cccs3)c(NCC3CCCO3)n2c1 (stereo unspecified)	-3.6	i	-0.3	-2.3	98.3*	0.696	1.8
CCCOc1ccc(CNC(=S)N/N=C/c2ccc([N+](=O)[O-])cc2)cc1	-22.3	.	.	1.8	52.6	.	-1.9
O=C(NC(=S)NCc1ccccc1)c1cccnc1	-4.0	i	3.7	-3.6	18.7	0.659	-2.6
CSc1cccc(NC(=O)c2ccccn2)c1	.	.	1.1	.	-39.3	0.66	0.8
CCOC(=O)Cn1nnc2c(sc3nc4c(c(-c5ccc(Cl)cc5)c32)CCC4)c1=O	3.6	.	-2.2	-2.1	0.8	0.698	6.5
COc1ccccc1CCNC(=O)Cn1c(=O)oc2ccccc21	3.0	i	-1.5	2.4	7.7	0.681	1.3
O=C1[C@@H]2C(c3cccnc3)=NO[C@@H]2C(=O)N1c1ccc(Br)cc1	-1.5	i	3.0	3.3	-2.8	0.675	-2.0
O=C(NNC(=O)c1cnccc1C(F)(F)F)c1ccccc1	-6.0	i	0.1	0.2	-4.0	0.689	1.5
c1ccc(CSc2ccc(-c3ccco3)nn2)cc1	2.5	.	1.1	3.2	.	0.682	.
COC(=O)C1C(=O)c2c(n[nH]c2C)CC1(C)C (stereo unspecified)	4.7	.	3.1	2.0	-15.1	0.731	5.0
Cc1ccnn1CCC(=O)N1CCCC(Nc2ccc(F)c(F)c2)C1 (stereo unspecified)	9.4	i	4.9	1.3	39.2	0.702	4.4
CSc1nc(N(C)NC(=O)c2ccc(Cl)cc2)c2ccccc2n1	21.1	.	-1.8	1.4	5.3	0.702	-5.3
CCN(CC)S(=O)(=O)c1ccc(Cl)c(NC(=O)c2ccc(C#N)cc2)c1	1.0	.	-0.7	2.6	2.0	0.672	9.0
O=C(NNS(=O)(=O)c1ccccc1F)c1sccc1-n1cccc1	3.9	i	2.0	0.7	37.9	0.625	-1.0
COc1ccc(C(=O)Nc2ccc3ccccc3c2)cc1OC	6.4	i	0.2	-2.8	-3.2	0.651	-7.0
CCn1c(SCC(=O)OC)nnc1-c1c[nH]c2ccccc12	7.4	i	4.2	-4.3	-4.3	0.67	5.6
O=C(Nc1ccc(F)c([N+](=O)[O-])c1)C1CC(=O)N(Cc2ccccc2)C1 (stereo unspecified)	10.2	i	0.5	2.2	-15.5	0.706	3.5
O=C(Nc1nnc(SCC(=O)N2CCOCC2)s1)C1CC(=O)N(c2ccccc2)C1 (stereo unspecified)	-2.9	.	1.3	-2.0	.	0.683	-5.9
CCCCCC(=O)NC(NC(=S)NC1CCS(=O)(=O)C1)C(Cl)(Cl)Cl (stereo unspecified)	4.0	.	0.7	4.6	-5.8	0.641	0.0
Cc1ccc(-n2nc(C)c3c(C(=O)OCC(=O)N(C)C4CCS(=O)(=O)C4)cc(-c4ccccc4)nc32)cc1 (stereo unspecified)	10.1	.	-15.6	0.7	3.7	0.669	-6.2
CC1Cc2ccccc2N1C(=O)CN1CCCCC1 (stereo unspecified)	-5.1	i	2.6	0.9	6.3	0.667	-1.5
N#Cc1nc(Cc2ccccc2)oc1NCCN1CCOCC1	4.4	i	2.6	3.9	2.6	0.712	-3.0
Cc1c(C)c2cccnc2c2ncccc12	4.8	.	-0.6	2.9	-14.4	0.253*	-4.7

(list continues)
SMILES	Beta2AR agonist	FGF22 binding	UCH37 DUB inh	HNF4A DNA FP	ALR inh	E coli growth	LANA-H2B inh
COc1ccc2[nH]cc(CCNC(=O)c3ccccc3Cl)c2c1	-12.7	i	-1.8	0.8	0.6	0.689	-6.2
CCOC(=O)C1=C(CN2CCSCC2)NC(=O)NC1c1cc(C)ccc1C (stereo unspecified)	-6.3	.	4.8	-1.2	-3.2	0.69	0.8
C/C(=N\Nc1ccc(C(=O)O)cc1)c1ccc(-n2ccnc2)cc1	-1.4	i	.	-2.4	45.9	.	3.1
NS(=O)(=O)c1ccc(CCNC(=O)C(=O)c2c[nH]c3ccccc23)cc1	55.7*	i	4.1	0.7	-1.7	0.689	1.3
CC(C)Cn1c(SCC(=O)NCc2ccc(Cl)cc2)nnc1-c1cccc(S(=O)(=O)N2CCOCC2)c1	2.5	i	2.9	-1.7	-0.6	0.753	0.0
COc1ccccc1N1CCN(C(=O)CSc2nnc(NC(=O)C3CC3)s2)CC1	-5.9	.	1.5	0.6	15.5	0.702	-2.4
CCOc1ccc(OCCC(=O)N2CCN(S(=O)(=O)c3ccc(OCC)cc3)CC2)cc1	-8.1	i	-0.1	-0.8	2.4	0.685	-6.8
NC(=O)c1cc([N+](=O)[O-])ccc1Nc1ccccc1	-8.8	i	-1.5	0.9	-2.6	0.685	0.2
Cc1nn(C)c(C)c1/C=C(/C(=O)C(C)C)n1cncn1	-5.2	i	3.1	1.9	-6.0	0.66	-1.4
COc1cc(/C=N/NC(=O)Cn2cnc3c2c(=O)n(C)c(=O)n3C)ccc1O	-1.0	.	.	-0.3	99.8*	.	0.1
O=C(CCCC(=O)N1CCCC1)N1CCCC1	3.8	i	-1.4	-1.6	-7.0	0.67	-5.3
CN(C)c1cc(-c2ccccc2)nc(-c2ccccc2)n1	-2.0	i	3.7	-0.5	-1.0	0.7	-1.7
CCNC(=O)NC(=O)c1csc([N+](=O)[O-])c1	-4.7	i	7.4	-1.9	-9.5	0.624	5.2
COc1ccc(NC(=O)c2cc([N+](=O)[O-])ccc2N2CCCC2)cc1S(N)(=O)=O	-10.3	i	11.9	-0.9	.	0.673	.
COc1ccccc1NC(=O)CCN1C(=O)C2CC=C(Cl)CC2C1=O (stereo unspecified)	2.3	i	4.1	3.3	.	0.658	-0.4
C[C@H](NC(=O)c1ccco1)C(=O)NCCc1ccc(S(N)(=O)=O)cc1	-3.7	i	3.4	-0.9	.	0.69	1.6
O=C(COC(=O)c1nc(Cl)ccc1Cl)NC1CCS(=O)(=O)C1 (stereo unspecified)	2.1	i	1.2	-0.8	5.2	0.722	1.6
O=C1c2ccccc2C(=O)N1CC1c2ccccc2CCN1C(=O)N1CCOCC1 (stereo unspecified)	-5.5	.	1.1	-4.1	-14.2	0.736	-5.3
COC(=O)c1ccc(-n2c(C)cc(/C=N/Nc3nc(C)cc(=O)[nH]3)c2C)cc1	25.3	i	.	3.2	1.6	.	0.7
O=C(CNc1ccccc1F)N/N=C/C1CC=CCC1 (stereo unspecified)	-7.9	i	.	-3.6	.	.	-1.7
O=C(O)c1ccccc1COc1ccccc1Cl	-0.7	i	-1.9	1.4	.	0.682	2.6
C(=N\N1CCN(c2ccccn2)CC1)/c1ccco1	1.4	i	.	3.3	52.4	.	1.9

Looked up by compound from the entries so far:
SMILES	Beta2AR agonist	FGF22 binding	UCH37 DUB inh	HNF4A DNA FP	ALR inh	E coli growth	LANA-H2B inh
CCOC(=O)C1=C(CN2CCSCC2)NC(=O)NC1c1cc(C)ccc1C (stereo unspecified)	-6.3	.	4.8	-1.2	-3.2	0.69	0.8
O=C(CNc1ccccc1F)N/N=C/C1CC=CCC1 (stereo unspecified)	-7.9	i	.	-3.6	.	.	-1.7

Record cards (already shown).
`Cc1cc(C(=O)OCC(=O)NCc2ccccc2)c2ccccc2n1` reads Beta2AR agonist = 0.7; FGF22 binding = i; UCH37 DUB inh = -2.8; HNF4A DNA FP = 2.7; ALR inh = -9.8; E coli growth = 0.693; LANA-H2B inh = 1.0
`COc1ccc2[nH]cc(CCNC(=O)c3ccccc3Cl)c2c1` reads Beta2AR agonist = -12.7; FGF22 binding = i; UCH37 DUB inh = -1.8; HNF4A DNA FP = 0.8; ALR inh = 0.6; E coli growth = 0.689; LANA-H2B inh = -6.2

Assay outcomes as filed in PubChem BioAssay.

These rows are one share of the data; the hit share may differ from the screen's.
